# PINK1 expr mod = A Quantitative High throughput Screen to Identify Chemical Modulators of PINK1 Expression. PINK1 immunofluorescence, high-content cytometry, 24 h. Potency, µM (highest dose often 76.6 µM), for inactives: at the highest dose activation (PINK1 increase), actives largely listed as activators. 410,000 tested, 0.2% active; active = well fitted activation curve with a large enough effect; inconclusive = small, poorly fitted or top-dose-only effect; inactive = flat fitted curve, though single readings scatter; cell line not stated here;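 note: potency is the fitted concentration of half-maximal effect; % of control where 0% means no effect; nearly all actives have a fitted effect of over 65% in size; a mitochondrial uncoupler was the plate control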
#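 A stable cell line was treated with compounds at 5 concentrations for 24 hours, with CCCP as control. PINK1 levels and mitochondrial localization were measured by immunofluorescence with mitochondrial, cell and nuclear markers after fixation, read by laser-scanning cytometry.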
# Sfp PPTase inh = qHTS Assay for Inhibitors of Bacillus subtilis Sfp phosphopantetheinyl transferase (PPTase); Biochemical Sfp PPTase activity, qHTS; Potency, µM, inactives show max response, negative = inhibition, hits mostly inhibitors; 310,000 tested, 3.5% active; AID 1490, 2009; active = well fitted inhibition curve with a large enough effect; inconclusive = small, poorly fitted or top-dose-only effect, or another doubt; inactive = no such curve, though single readings can be large or run the other way;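 note: the enzyme is Sfp with the accession as filed and its product quenches rhodamine fluorescence; potency is the fitted concentration of half-maximal effect; 0% = enzyme reaction without inhibitor and -100% = no enzyme wells; top concentration of the series not given in the record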
#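 With Hepes-Na pH 7.6 buffer containing 10 mM MgCl2, Sfp (15 nM) modified BHQ-2-YbbR (12.5 uM) using rhodamine-CoA (5 uM). Two reads 30 minutes apart at 525/598 nm yielded each well's rate.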
# TRPV1 PAM = HTS Assay for Compounds that Act as Potentiators of the Vanilloid Receptor 1 | 320,000 tested, 0.02% active | potentiation, % at 8.33 µM | AID 540277, 2011 | TRPV1-expressing cells, Fluo-8 calcium influx, capsaicin EC20 potentiation; host cell line not named in the record; control for the full effect not named in the record | Transient receptor potential cation channel subfamily V member 1 (Homo sapiens), Q8NER1; active means potentiation above 80%; inconclusive means 30% to 80%; inactive means below 30%; note: 0% is about no effect
#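 Fluo-8 calcium influx in TRPV1-expressing cells, kinetic read (ex 480/em 520 nm). Compound added and read 3 min for agonist activity, followed by capsaicin at EC20 final and 2 min further read for enhancement.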
# TRPML1 blocker = qHTS for Inhibitors of the Human Mucolipin Transient Receptor Potential 1 (TRPML1) | AID 624415, 2012 | TRPML1-inducible cells, Ca2+ dye fluorescence, FDSS; active compounds read low; inhibition of EC80 agonist-evoked calcium signal | Mucolipin-1 (Homo sapiens), Q9GZU1 | 390,000 tested, 0.02% active | activity change, negative = inhibition, % (concentration not given with the values); in the data active means activity change below about -50%; inconclusive means about -30% to -50%; inactive means above about -30%;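 note: stimulus is agonist 54-4 at its EC80 concentration; % is set by controls: 0 for no effect and ±100 for the full control effect; the text of the record puts the active cut at -80%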
# Target sequence (Q9GZU1 whole entry, looked up): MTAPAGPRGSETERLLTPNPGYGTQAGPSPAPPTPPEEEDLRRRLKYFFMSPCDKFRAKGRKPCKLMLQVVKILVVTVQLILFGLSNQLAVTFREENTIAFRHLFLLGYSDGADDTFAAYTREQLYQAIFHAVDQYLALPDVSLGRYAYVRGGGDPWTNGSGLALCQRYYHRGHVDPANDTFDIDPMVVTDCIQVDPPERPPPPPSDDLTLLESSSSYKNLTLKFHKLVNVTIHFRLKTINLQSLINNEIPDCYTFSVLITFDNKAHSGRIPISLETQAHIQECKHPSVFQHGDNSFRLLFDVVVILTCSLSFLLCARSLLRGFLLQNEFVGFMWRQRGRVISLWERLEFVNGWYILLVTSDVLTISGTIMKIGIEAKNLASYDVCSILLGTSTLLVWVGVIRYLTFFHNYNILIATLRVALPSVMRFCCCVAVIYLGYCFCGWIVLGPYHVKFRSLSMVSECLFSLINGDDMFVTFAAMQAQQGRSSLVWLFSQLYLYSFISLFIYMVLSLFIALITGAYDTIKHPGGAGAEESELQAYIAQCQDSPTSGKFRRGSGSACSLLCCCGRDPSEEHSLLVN
#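 TRPML1-DL cells, Tet-induced overnight (~16 h, 37 °C) at 1,500 cells/well, were loaded with Ca8 no-wash dye plus quencher for 45-90 min at room temperature. Compounds were pinned during FDSS kinetic reading; agonist 54-4 at EC80 (4 uM final) then added.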
# TRPML1 ag = qHTS for Agonists of the Human Mucolipin Transient Receptor Potential 1 (TRPML1) | Mucolipin-1 (Homo sapiens), Q9GZU1 | TRPML1-expressing cells, Ca2+ dye fluorescence, FDSS; host cell line not named in the record; reference of the full effect not given here | activation, % (test concentration not listed) | 410,000 tested, 0.12% active; in the data active = activation above about 50%; inconclusive = about 30% to 50%; inactive = below about 30%; note: 0% is about no effect; the text of the record puts the active cut at 80%
#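 Kinetic FDSS Ca2+ read in Tet-induced TRPML1-DL cells (ABD Ca8 dye plus quencher, 45-90 min RT loading): baseline, then compound, then 110 s agonist window; EC80 agonist 54-4 at 4uM final added afterwards for a 110 s antagonist window.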
# Menin MLL FP FL = qHTS Assay for Inhibitors Targeting the Menin-MLL Interaction in MLL Related Leukemias: Competition With Fluorescein Labeled MLL-derived Peptide; 290,000 tested, under 10 active; AID 1766, 2009; Fluorescence polarization, fluorescein-MLL peptide displacement from menin; FP activity change, % at 61.4 µM; inconclusive = falling polarisation curve, or a change in total fluorescence; inactive = total fluorescence flat and polarisation flat or rising; no compound was filed as active; the % refers to the polarisation; negative = inhibition;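 note: % of control where 0% means no effect; inhibitors lower the polarisation; unlabelled MLL peptide was the positive control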
# ClpP mod = qHTS Assay for Activators of ClpP; Potency, µM (doses to about 57.5 µM), for the others: at the highest dose activity change, negative = active; 340,000 tested, 1.9% active; AID 651965, 2013; purified B. subtilis ClpP, FRET peptide cleavage, 20 min; active = well fitted falling curve with a large enough effect; inconclusive = small, poorly fitted or top-dose-only effect; inactive = no such curve, though single readings can be large or run the other way; note: potency is the fitted concentration of half-maximal effect; the source files actives as falling curves though it sought activators and does not explain the sign; nearly all actives have a fitted effect of over 65% in size; many hits overshoot -100%
# Target sequence (P80244 whole entry, looked up): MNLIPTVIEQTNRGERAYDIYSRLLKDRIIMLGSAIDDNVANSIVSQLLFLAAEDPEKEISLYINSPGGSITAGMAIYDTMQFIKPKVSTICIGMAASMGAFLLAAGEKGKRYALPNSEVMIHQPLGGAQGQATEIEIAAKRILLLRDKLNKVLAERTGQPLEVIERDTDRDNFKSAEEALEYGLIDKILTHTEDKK
#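 Purified B. subtilis ClpP, 10 microg/mL final in Tris/HCl pH8 with KCl, BSA, glycerol and Tween-20, cleaved an Abz/nitrotyrosine-quenched decapeptide. Fluorescence (ex 320, em 430) was read at 0 and 20 min at room temperature. Delta was normalized to 5.8 microM ADEP and DMSO/no-enzyme controls.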
# * = called active by the depositor; ? = inconclusive; · = no result given; & = joins results of further samples; [ ] = remark or other dose.
SMILES	PINK1 expr mod	Sfp PPTase inh	TRPV1 PAM	TRPML1 blocker	TRPML1 ag	Menin MLL FP FL	ClpP mod
N#Cc1ccccc1CSc1nc(N)cc(N)n1	-0.8%	-3%	19	-19	1.6	-0.7	-24%
Cc1cc(NC(=O)CCC(=O)N(Cc2ccco2)C(C(=O)NC2CCCC2)c2ccccc2F)no1 (configuration not stated)	-1.8%	9%	8	-18	0.4	1.6	·
Cc1nc2c(-c3ccccc3)c(C)nn2c(N)c1-c1ccccc1	-1.6%	10%	-5	-3	-1.3	-3.1	?
COCCN1CC(C(=O)N2CCC(Oc3ccccc3OC)CC2)CCC1=O (configuration not stated)	6.1%	12%	15	-2	-0.3	-2.0	0.7%
CC(=O)Nc1ccc(C(=O)OCC(=O)c2ccc(F)cc2)cc1	0.5%	10%	2	-4	-0.4	0.6	-1.1%
O=C(CCCC(=O)Nc1cccc(Br)c1)N/N=C/c1cc([N+](=O)[O-])ccc1O	1.0%	23%	8	-25	0.2	1.5	0.0%
O=C(c1n[nH]c2c1CCCC2)n1ccnc1	·	-9%	4	·	·	2.1	·
COc1ccc(C)cc1S(=O)(=O)N1CCN(C(=O)c2ncoc2-c2ccccc2F)CC1	1.1%	16%	5	-21	-0.5	5.1	·
Cn1c(=O)c2[nH]c(NN=Cc3ccc(F)cc3)nc2n(C)c1=O	0.9%	·	·	-6	-0.5	·	·
COc1ccccc1CNC(=O)COC(=O)CCN=C1NS(=O)(=O)c2ccccc21	1.1%	·	3	-1	-0.2	·	0.5%
Clc1ccc(N2O[C@H]3C=C[C@@H]2C3)nc1	2.0%	·	·	0	3.7	·	-15%
CC(C)C(=O)NCc1cc(-c2ccc(Cl)cc2)no1	0.4%	9%	-11	10	-0.8	0.6	-1.2%
CCOC(=O)c1cnc2ccc(OC)cc2c1NCCc1ccc(OC)c(OC)c1	?	-16%	-3	-4&3	3.7&0.8	5.5	-13%&1.0%
CCn1c(SCC(=O)Nc2cc(Cl)ccc2OC)nc2c([nH]c3ccccc32)c1=O	-4.9%	·	·	13	0.0	·	-3.6%
COC(=O)c1ccc(NC(=O)CSc2nc(=O)cc(N)n2-c2ccccc2)cc1	-0.6%	14%	14	-2	0.5	-0.8	0.4%
CN(C)CCC(O)(c1ccccc1)c1ccccc1Cl (configuration not stated)	-2.2%	·	·	-11	0.0	·	0.2%
COc1cccc(C2=CC(=O)CC(c3ccco3)C2)c1 (configuration not stated)	-0.6%	·	·	9	1.2	·	1.1%
Cc1c(NC(=O)c2ccc(N(Cc3ccccc3)S(C)(=O)=O)cc2)c(=O)n(-c2ccccc2)n1C	0.0%	6%	21	6	0.0	0.1	·
COc1ccc(CCNCc2csc3nc4ccccc4n23)cc1OC	6.3%	5%	11	10	-0.2	2.4	-1.4%
COc1cc(N(C)C)c(OC)cc1/C=C/c1ccnc2ccccc12	7.7%	·	·	·	?	·	-0.3%
O=C(NCc1ccc2c(c1)OCO2)c1ccc(C2SCC(=O)N2Cc2ccco2)cc1 (configuration not stated)	0.0%[38.3 µM]	35µM*	8	-10	0.0	14	-1.7%
OCCNCc1cccc(-c2ccccc2)c1O	-0.7%	·	·	7	0.1	·	·
CCOc1ccc(NC(=O)COC(=O)c2ccccc2OCC(=O)N(C)C)cc1	-0.7%	·	·	·	-0.7	·	-1.2%
CCN(CC(=O)Nc1ccc2c(c1)OCCO2)C(=O)c1cc(S(=O)(=O)N2CCOCC2)ccc1F	0.3%	·	?	12	-0.7	·	-3.4%

# Three compounds from above, ordered by their value in PINK1 expr mod, low to high.
Compound,PINK1 expr mod
CCn1c(SCC(=O)Nc2cc(Cl)ccc2OC)nc2c([nH]c3ccccc32)c1=O,-4.9%
OCCNCc1cccc(-c2ccccc2)c1O,-0.7%
CCN(CC(=O)Nc1ccc2c(c1)OCCO2)C(=O)c1cc(S(=O)(=O)N2CCOCC2)ccc1F,0.3%

# (next part)
SMILES	PINK1 expr mod	Sfp PPTase inh	TRPV1 PAM	TRPML1 blocker	TRPML1 ag	Menin MLL FP FL	ClpP mod
O=C1C2CC(O)CN2C(=S)N1Cc1ccccc1 (configuration not stated)	0.8%	50µM*	21	36	-0.6	3.6	-1.6%
COc1ccc(NC(=O)CSC2=Nc3ccccc3C3=NC(CC(=O)NCCc4ccccc4)C(=O)N23)cc1 (configuration not stated)	1.2%	·	·	8	1.3	·	-4.4%
Fc1ccccc1COc1ccc(Br)cc1CNCc1ccncc1	1.1%	79µM*	7	68	0.2	-1.0	0.9%
COC(=O)c1ccccc1NC(=O)CSc1nnc(-c2ccncc2)o1	0.2%	-2%	-7	-3	-0.9	1.6	-6.9%
C=CCOC(=O)C1=C[C@@H](c2cn(C(C)=O)c3ccccc23)C[C@@H](OCCCCO)O1	1.8%	1%	-1	-3	1.3	8.9	-2.7%
O=C(c1ccc(NC2=NC3CS(=O)(=O)CC3S2)cc1)N1CCN(c2ccc(F)cc2)CC1 (configuration not stated)	0.3%	13%	11	-6	-0.3	4.2	-1.8%
N#CCCn1cc(C(N)=O)c(-c2cccs2)n1	-3.8%	13%	-14	-20	0.7	-1.6	-7.7%
O=C(CN1C(=O)COc2ccccc21)N1CCc2ccccc21	2.3%	16%	2	-10	1.3	-1.0	1.6%
COc1ccc(N(C(=O)c2snc(C(N)=O)c2N)C(C(=O)NCc2ccccc2)c2ccc(O)cc2)cc1OC (configuration not stated)	7.1%	3%	-10	-7	0.0	-1.2	·
COc1ccc(-c2nn(-c3ccccc3)cc2/C=N/N=C(N)N)cc1OC	-4.4%	50µM*	5	-5	-0.5	-2.8	0.3%
C/C(=N/Nc1ccccc1[N+](=O)[O-])c1ccc([N+](=O)[O-])cc1	4.9%	6%	11	42	1.3	0.0	-2.3%
CSC1=NC=C(C#N)C2=NC(c3ccc(Cl)cc3)NN12 (configuration not stated)	-0.5%	·	·	·	-0.4	·	-4.0%
Cc1ccc(NS(=O)(=O)c2cccc(C(=O)N/N=C/c3ccc4c(c3)OCCO4)c2)c(C)c1	4.1%	5%	14	1	1.0	4.0	?
C/C(=N\NC(=O)COc1ccc(C)cc1[N+](=O)[O-])c1cccs1	11%	16%	0	11	1.9	4.3	·
CC(C)Oc1ccc(CC2CCC(=O)N(C)C2=O)cc1 (configuration not stated)	0.6%	13%	2	3	-0.7	0.8	-0.9%
C/C(=N\Nc1nccnc1Cl)c1ccc(Cl)c(Cl)c1	-0.3%	?	-27	-7	-0.3	-3.9	-2.1%
COc1cc2c(c(OC)c1OC)C(=O)C(=Cc1ccccc1)O2	-1.4%	·	·	-10	-0.3	·	-4.7%
NC(=O)c1nsc(C(=O)N(c2cccc(F)c2)C(C(=O)NCC2CCCO2)c2c[nH]c3ccccc23)c1N (configuration not stated)	-1.0%	7%	-5	-17	0.3	-3.3	·
COc1cc(/C=C(/C#N)c2ccccc2)ccc1Oc1ccc([N+](=O)[O-])cn1	-8.3%[38.3 µM]	-14%	2	43	1.3	2.3	-0.7%
CC(=O)Nc1nc(=S)ss1	-1.7%	16µM*	-4	-1	0.4	0.1	-1.7%
S=C(NCCc1ccccn1)Nc1ccccc1Cl	0.3%	?	5	-2	0.5	-1.8	-2.8%
O=C(COc1ccc(Br)cc1)Nc1ccncc1	0.9%	16%	-14	57	1.2	0.5	-7.8%
Cc1ccc(C(=O)NCc2ccccn2)c(Cl)c1	0.4%	8%	5	8	0.9	1.9	-0.3%
CNC(=O)C[C@H]1C(=O)N(Cc2ccccc2)C[C@@H]1C	1.2%	·	·	-1	-0.1	·	1.2%
O=C(CS(=O)(=O)Cc1ccccc1)Nc1ccc2c(c1)OCO2	0.2%	-3%	21	-14	0.3	-1.2	-2.1%
O=C(CC(Nc1cccc(Cl)c1Cl)C(=O)OCC(=O)c1cccs1)c1ccccc1 (configuration not stated)	2.2%	56µM*	12	-12	0.5	3.2	-0.4%
N/C(CCS(=O)(=O)c1ccc(Cl)cc1)=N\OC(=O)c1ccccc1Cl	-1.2%	13%	-9	-2	2.2	3.6	·
CCN(CC)c1ccc(NS(=O)(=O)c2ccc(-c3cnc(C4CC4)o3)cc2)c(C)c1	7.6%	·	·	-3	-0.5	·	3.3%
CC1CCC(NC(=O)c2ccc3nc[nH]c3c2)CC1 (configuration not stated)	2.2%	12%	4	-11	1.5	-0.8	-3.9%
O=C(NCc1ccccc1)C1CCN(C(=O)Cc2ccccc2)CC1	0.0%	3%	24	22	-0.4	·	0.6%
COc1ccccc1C(=O)NCCC(=O)N1CC(C)OC(C)C1 (configuration not stated)	3.4%	·	·	-9	-0.4	·	·
COc1ccc(C(=O)N2CCC3(CCCN(c4ncccn4)C3)CC2)cc1	-0.1%	-6%	·	·	·	-0.4	·
Cc1ccccc1OCc1nnc(SCC(=O)N2c3ccccc3Sc3ccc(Cl)cc32)o1	0.7%	5%	8	-9	0.3	2.4	-0.1%
O=C(Cc1ccc(Cl)cc1Cl)NCc1cccnc1	-2.3%	4%	16	-1	0.0	0.6	·
COc1ccc(Cn2ccnc2SCC(=O)Nc2cc(C(F)(F)F)ccc2Cl)cc1	?	·	·	48	2.4	·	0.8%
CCOC(=O)NC(CC(=O)O)c1ccc(OC)c(OC)c1 (configuration not stated)	3.3%	6%	3	29	-0.2	7.5	-2.5%
CC(=O)Nc1cccc(Nc2cc(C)nn2C)c1	1.8%	·	·	·	-0.2	·	-37%
COCCn1c(-c2ccco2)nc2nc3ccccc3nc21	-1.1%	-3%	15	-11	-0.3	?	8.5%
Cc1ccc(Cl)cc1N1CCN(S(=O)(=O)c2c(C)noc2C)CC1	2.5%	2%	-2	0	-0.3	0.6	-3.4%

# Bioassay records (PubChem BioAssay)
